Screens: PubChem, several laboratories
CBX7 inh = blocks human CBX7 binding to H3K27me3 peptide | O95931 | AlphaScreen His6-CBX7 / biotin-H3K27me3 peptide binding; active compounds read low | normalised signal (fraction of DMSO) (test concentration not listed) | 66,000 tested, 1.1% active; in the data active = normalised signal below about 0.5;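 also: 100 nL library stock added to about 20 µL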
Target sequence (O95931 whole entry, looked up): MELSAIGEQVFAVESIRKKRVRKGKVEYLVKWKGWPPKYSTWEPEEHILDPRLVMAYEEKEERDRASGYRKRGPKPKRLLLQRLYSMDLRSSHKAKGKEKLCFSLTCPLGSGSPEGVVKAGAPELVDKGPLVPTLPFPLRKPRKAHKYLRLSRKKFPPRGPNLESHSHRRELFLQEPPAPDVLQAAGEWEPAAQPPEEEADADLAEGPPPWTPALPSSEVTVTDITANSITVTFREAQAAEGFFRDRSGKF
CBX7 inh z-score = second read-out of CBX7 inh, no call of its own (marks repeat the call); z-score; measured here: z-score of CBX7 signal; some inactives read as strong as hits; reference of the scale not given here;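 same signal on another scale; lower means less binding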
* marks the source's active call; other numbers are inactive results; & = joins results of further samples. Not all compounds are listed. The share of hits here may be higher or lower than overall.

Values in the order: CBX7 inh	CBX7 inh z-score
CCOc1ccc(NC(=O)CSc2nc(NCCOC)c3ccccc3n2)cc1
→ 1	0.99
Cc1ccc(-n2c(=O)cc(N3CC(C)OC(C)C3)[nH]c2=O)cc1 (centres undefined)
→ 1	0.57
CCN(C(=O)c1cc2c(s1)-c1ccccc1OC2)c1cc(OC)ccc1OC
→ 0.93	-2
Cc1ccccc1-c1nc(CS(=O)(=O)CC(=O)NCCCN2CCN(C)CC2)c(C)o1
→ 1.1	2.2
COc1cccc(-c2cc(C(=O)Nc3cccc(Cl)c3)no2)c1
→ 0.97	-0.65
O=C(c1c[nH]c2ccc(S(=O)(=O)N3CCOCC3)cc2c1=O)N1CCN(c2ccccn2)CC1
→ 1.1	1.7
Cc1ccc(-c2nnc(Nc3ccc(C(N)=O)cc3)c3ccccc23)cc1S(=O)(=O)NCCO
→ 1	0.32
Cc1ccccc1NC(=O)C1CCCN(S(=O)(=O)c2c(C)nn(C)c2C)C1 (centres undefined)
→ 1.1	1.7
CCN(CC)S(=O)(=O)c1ccc2c(c1)N(CC(=O)Nc1ccc(OC)cc1)C(=O)CS2
→ 1.1	1.8
CCOC(=O)CSc1nnc(-c2ccncc2)n1-c1ccccc1
→ 0.96	-0.43
COc1ccc(-c2cc(C(=O)N(C)c3ccccc3)no2)cc1
→ 1.1	0.48
COc1ccc(C(=O)Nc2c(-c3ccccc3)nc3ccccn23)c(OC)c1
→ 0.94	-1.6
Cc1cc(C)nc(NC(=O)c2cc(-c3ccc(Br)cc3)nc3ccccc23)c1
→ 1.3	2.2
COC(=O)c1ccccc1NC(=O)C1(S(=O)(=O)c2ccc(Cl)cc2)CC1
→ 1	0.48
COc1ccc(CN(C(=O)c2ccccc2F)C2CCS(=O)(=O)C2)cc1 (centres undefined)
→ 1	0.078
CCCN(CCC)CCNS(=O)(=O)c1ccc2c(c1)CCN2C(=O)C1CCC1
→ 1	0.91
COc1ccc(Nc2c(-c3ccc(C)cc3)nc3ncccn23)cc1OC
→ 0.92	-0.33
O=C(CN1C(=O)CSc2ccccc21)NCc1ccccn1
→ 0.64	-6.2
CC1CCCC(C)N1CCNC(=O)c1ccc2c(c1)NC(=O)C(N1CCCCC1)S2 (centres undefined)
→ 0.97	-0.95
CN1CCN(CCCNC(=O)CSCc2cnn(-c3ccccc3)c2-n2cccc2)CC1
→ 1	1.1
Cc1ccc(NC(=O)c2cnc3sccn3c2=O)cc1C
→ 0.94	-0.73
Cc1ccc2c(c1)NC(c1ccc(F)cc1)C1=C(CC(c3ccccc3)CC1=O)N2 (centres undefined)
→ 1	0.12
COc1ccc(-c2nn(C)c3sc(C(=O)N4CCN(C5CCCCC5)CC4)cc23)cc1OC
→ 0.76	-3.1
O=C(O)C(Cc1ccccc1)NS(=O)(=O)c1cccc2cccnc12 (centres undefined)
→ 1	0.42
Cc1ccc(CCNC(=O)CCN2C(=O)COc3ccccc32)cc1
→ 0.95	-1.5
COc1ccc(NC(=O)NCCCN2CCN(c3ccc(OC)cc3)CC2)cc1
→ 1	0.38
CCOC(=O)c1c(NC(=O)c2ccccc2F)sc2c1CCC(C)C2 (centres undefined)
→ 1.5	4.1
O=C(CCN1N=C(c2ccccc2)CCC1=O)NCCN1CCOCC1
→ 1.1	1.4
Cn1c(CC(=O)NCCCO)c(Sc2ccccc2)c2ccccc21
→ 1.1	1.4
CC1CCN(c2nc3ccc(C(=O)NCCc4c[nH]c5ccccc45)cc3s2)CC1
→ 0.83	-3.7
Cc1ccc(CNC(=O)c2cc3sccc3n2Cc2ccc(F)cc2)cc1
→ 0.94	-1.5
O=C(Nc1cccc(Cl)c1)c1cc(-c2ccc(F)cc2)on1
→ 1.1	3.9
Cc1cc(N2CCC(C(=O)NCc3ccccc3)CC2)n2nc(C)c(-c3ccc(Cl)cc3)c2n1
→ 1	0.49
c1ccc2c(-c3nc(-c4ccncc4)no3)cc(-c3ccncc3)nc2c1
→ 1.1	0.71
Cc1ccc(S(=O)(=O)Nc2ccc3c(c2)nc(C)n3C)cc1
→ 1.1	0.12
COc1cc(Nc2nc(C)c(C(C)=O)s2)c(OC)cc1Cl
→ 1	0.14
Cc1cc(C)cc(NC(=O)CSc2oc(-c3ccc(F)cc3)nc2S(=O)(=O)c2ccccc2)c1
→ 0.96	-0.32
COc1ccc(NC(=O)c2cc(-c3ccc(Cl)c(Cl)c3)on2)cc1OC
→ 1	-0.0088
CCc1ccc(NC2c3ccccc3C(=O)N2c2ccccc2C)cc1 (centres undefined)
→ 0.86	-4.8
O=C1CC(Cc2ccc(Cl)cc2)C(=O)N1C1CCCCC1 (centres undefined)
→ 0.94	-0.71
COc1cccc2sc(NC(=O)c3ccccc3NS(=O)(=O)c3ccc(C)cc3)nc12
→ 0.71	-4.8
O=C(CSc1nnc(Cc2cc(=O)[nH]c(=O)[nH]2)n1-c1ccccc1)Nc1cccc(F)c1
→ 1.1	1.9
Cc1ccc(-c2nc3cc(NC(=O)c4cc5ccccc5o4)ccc3o2)cc1Cl
→ 0.95	-0.065
Cc1ccc(CN2CCN(CC(=O)NCCCN3CCN(c4cccc(Cl)c4)CC3)C2=O)cc1
→ 0.86	-2.8
COc1ccccc1NC(=O)Cn1nc(Cc2ccncc2)c2ccccc2c1=O
→ 1	0.21
O=C(CSCc1ccccc1)Nc1nnc(COc2ccc(Cl)cc2)s1
→ 0.9	-2.1
COc1ccc(NC(=O)c2sc(C)nc2C)cc1
→ 0.88	-0.33
COc1ccc(Nc2ncc(C(=O)Nc3ccc4c(c3)OCO4)c3ccccc23)cc1
→ 0.99	-0.29
COc1cccc(C(=O)N2CC(=O)Nc3ccc(F)cc3C2c2ccc(F)cc2)c1 (centres undefined)
→ 1.1	1.9
CCOc1ccc(C(O)(CCN2CCCCC2)c2ccc(C)cc2)cc1 (centres undefined)
→ 0.88	-1.4
COCC(=O)NCCc1nc2ccccc2n1Cc1c(F)cccc1Cl
→ 0.98	-1.1
CC(CCCc1ccc(F)cc1)c1cc(O)c2c(c1)OC(C)(C)CC2(O)c1ccccn1 (centres undefined)
→ 0.85	-0.42
O=C(Nc1nnc(-c2ccc3c(c2)OCO3)s1)C1CCCCC1
→ 1	0.034
Cc1cccc(NC(=O)c2sc3ncn(Cc4cccc(F)c4)c(=O)c3c2C)c1
→ 1.1	0.45
COc1cccc(-n2c(SCC(N)=O)nnc2-c2c[nH]c3ccccc23)c1
→ 1	0.11
COc1ccc(N2CCN(C3CC(=O)N(c4ccc(OC)cc4)C3=O)CC2)cc1 (centres undefined)
→ 0.95	-1.1
COc1ccccc1OCc1nc(-c2ccncc2)no1
→ 0.91	-0.91
O=c1cc(Cc2nnc(SCc3ccc(Br)cc3)n2-c2ccc(F)cc2)[nH]c(=O)[nH]1
→ 1.1	1.9
COc1ccc(N2CCN(C(=O)Cc3c(C(=O)O)[nH]c4ccc(Cl)cc34)CC2)cc1
→ 1.1	1.9
O=C(O)c1ccccc1-c1nc(-c2cccnc2)no1
→ 1	0.18

Exported bar-delimited: five of the compounds above
mol | CBX7 inh | CBX7 inh z-score
COc1cccc(C(=O)N2CC(=O)Nc3ccc(F)cc3C2c2ccc(F)cc2)c1 (centres undefined) | 1.1 | 1.9
CCOc1ccc(C(O)(CCN2CCCCC2)c2ccc(C)cc2)cc1 (centres undefined) | 0.88 | -1.4
COCC(=O)NCCc1nc2ccccc2n1Cc1c(F)cccc1Cl | 0.98 | -1.1
CC(CCCc1ccc(F)cc1)c1cc(O)c2c(c1)OC(C)(C)CC2(O)c1ccccn1 (centres undefined) | 0.85 | -0.42
O=C(Nc1nnc(-c2ccc3c(c2)OCO3)s1)C1CCCCC1 | 1 | 0.034

The results go on.
Values in the order: CBX7 inh	CBX7 inh z-score
Cc1ccc(-c2nc3cnccn3c2Nc2ccc3c(c2)OCCO3)cc1
→ 0.96	-0.38
COc1ccc(NC(=O)C(Cc2ccccc2)NS(=O)(=O)c2cccs2)c(OC)c1 (centres undefined)
→ 0.97	-1.1
COc1cc(-c2ncnn2-c2ccc(Cl)cc2)ccc1OCc1ccccc1
→ 0.94	-0.78
Cc1ccc(OCC(O)CN2CCN(c3ccc(F)cc3)CC2)c(C)c1 (centres undefined)
→ 0.89	-1.7
C(=C\c1ccccc1)/CSc1ncnc2ccccc12
→ 1.2	6.3
COc1ccccc1CNC(=O)c1oc2ccc(S(=O)(=O)N3CCCC3)cc2c1C
→ 1	0.45
CC(Oc1ccccc1)C(=O)N1CC(=O)Nc2ccc(Br)cc2C1c1ccccc1 (centres undefined)
→ 1	1.1
CCOc1ccc(-n2ccnc2SCC(=O)Nc2cccc(F)c2)cc1
→ 0.56	-0.59
COc1ccc(-c2cc3c(n2Cc2ccc(F)cc2)CC(C)(C)CC3=O)cc1
→ 0.84	-1
O=C1c2ccccc2C(Nc2cccnc2)N1Cc1ccccc1 (centres undefined)
→ 0.86	-1.4
Cc1ccccc1NC(=O)NCCCN1CCN(C2CCCCC2)CC1
→ 1.1	2.7
CCc1cccc(NC(=O)CN(c2ccc(C(C)C)cc2)S(=O)(=O)c2c(C)noc2C)c1
→ 1.1	0.5
COc1ccc(C(=O)Nc2nnc(-c3ccc(C)cc3)s2)cc1
→ 1.1	0.22
N=c1n(CCO)c2ccccc2n1CCOc1ccc(Cl)cc1
→ 1.1	0.64
O=C(CSc1ncn[nH]1)Nc1ccc(Br)cn1
→ 1.2	2.2

Entries of single compounds as entered above:
Entry for COc1ccc(-c2cc3c(n2Cc2ccc(F)cc2)CC(C)(C)CC3=O)cc1 → CBX7 inh: 0.84; CBX7 inh z-score: -1
Entry for Cc1ccccc1NC(=O)NCCCN1CCN(C2CCCCC2)CC1 → CBX7 inh: 1.1; CBX7 inh z-score: 2.7

Individual results from the results shown:
Cc1ccc(-c2nc3cnccn3c2Nc2ccc3c(c2)OCCO3)cc1 @ CBX7 inh = 0.96
N=c1n(CCO)c2ccccc2n1CCOc1ccc(Cl)cc1 @ CBX7 inh z-score = 0.64
COc1ccccc1CNC(=O)c1oc2ccc(S(=O)(=O)N3CCCC3)cc2c1C @ CBX7 inh z-score = 0.45
COc1cc(-c2ncnn2-c2ccc(Cl)cc2)ccc1OCc1ccccc1 @ CBX7 inh = 0.94
Cc1ccccc1NC(=O)NCCCN1CCN(C2CCCCC2)CC1 @ CBX7 inh = 1.1

(list continues)
Values in the order: CBX7 inh	CBX7 inh z-score
COc1cc2c(C(=O)Nc3cccc(Cl)c3)cn(CC(C)C)c(=O)c2cc1OC
→ 0.87	-3.4
Oc1ccc(C2(c3ccc(Cl)cc3)CCCCC2)cc1
→ 0.94	-1.5
O=C(CC1Oc2ccc(Cl)cc2NC1=O)NCc1ccccn1 (centres undefined)
→ 1	1.4
O=C(CN1C(=O)COc2ccc(S(=O)(=O)N3CCOCC3)cc21)NCc1ccc(Cl)cc1
→ 1	1.1
CCOc1ccc(NC(=O)CCc2c(C)nc3c(-c4ccccc4)c(C)nn3c2C)cc1
→ 1	0.32
O=C1CC(N2CCN(Cc3ccc(Cl)cc3)CC2)C(=O)N1c1cccc(Cl)c1 (centres undefined)
→ 0.99	-0.73
CCCc1nn(-c2ccc(=O)[nH]n2)c(CCC)c1CC
→ 1&1	1.1&0.36
CCCCNC(=O)C1CCN(c2nc3ccccc3o2)CC1
→ 1	1.3
COc1ccc(CN2C(=O)N(c3ccc(F)cc3)C(=O)C2CC(=O)Nc2ccc(F)c(F)c2)cc1 (centres undefined)
→ 1	-0.17
Cc1cccc(-c2nc3cc(NC(=O)c4ccc(Cl)cc4)ccc3o2)c1
→ 0.84	-0.66
COc1nnc(-c2ccc(C)c(S(=O)(=O)NC(C)C)c2)c2ccccc12
→ 0.82	-2.2
Cc1c(C(=O)Nc2ccccc2F)sc2ncn(CC(=O)N3CC(C)CC(C)C3)c(=O)c12 (centres undefined)
→ 1	0.31
Nc1nonc1-c1noc(-c2ccccc2Cl)n1
→ 1	0.31
CCOC(CNC(=O)c1ccc2c(c1)N(Cc1ccccc1)C(=O)CS2=O)OCC (centres undefined)
→ 1.1	1.4
O=C(NCc1ccc(Cl)cc1)c1ccc2c(c1)NC(=O)c1ccccc1N2
→ 1.1	0.48
CCN(CC)S(=O)(=O)c1ccc2c(c1)N(CC(=O)N1CC(C)CC(C)C1)C(=O)CS2 (centres undefined)
→ 1	1.2
Cc1cc(Nc2ccccc2F)nc2cc(O)ccc12
→ 0.81	-5
COc1ccc(-c2noc(CCC(=O)N(C)c3cccc(C(F)(F)F)c3)n2)cc1
→ 1.1	0.079
NC(=O)c1nnn(Cc2ccccc2)c1N
→ 1.1	1.3
FC(F)(F)c1cc(-c2cccs2)nc2c(-c3cccc(Br)c3)cnn12
→ 0.88	-2.1
O=C(Nc1c(C(=O)Nc2ccc(F)cc2)oc2ccccc12)c1ccc(F)c(F)c1
→ 1	0.24
CC1CCc2oc3ccc(NS(=O)(=O)c4ccc(F)cc4)cc3c2C1 (centres undefined)
→ 0.97	-0.33
CCCCC(=O)Nc1ccc(-c2csc(-c3ccccc3)n2)cc1
→ 1	0.83
O=C(CSc1nc2ccccc2[nH]1)NCc1ccccc1
→ 1.1	1.3
Cc1ccccc1N(C)C(=O)Cn1nc(Cc2cccnc2)c2ccccc2c1=O
→ 1	0.23
O=C(Nc1ccc(F)cc1F)C1CCN(S(=O)(=O)c2ccccc2)CC1
→ 0.89	-2
Cc1cccc(N2CC(c3nc4ccccc4n3Cc3ccccc3F)CC2=O)c1C (centres undefined)
→ 0.88	-0.76
Cc1ccc(Nc2c(-c3ccc(C)cc3)nc3ccc(C)cn23)cc1
→ 1.1	0.69
CCOc1cc2c(cc1OCC)C(c1ccc(OC(F)F)cc1)NCC2 (centres undefined)
→ 0.96	-0.14
COc1ccc(-c2noc(CCC(=O)NC3CCCCCC3)n2)cc1
→ 1.1	2.2
Cc1ccccc1Cn1c(CCCNC(=O)C(C)(C)C)nc2ccccc21
→ 1.2	1.7
O=C(Nc1cccnc1Cl)c1cc(-c2cccc(Cl)c2)on1
→ 0.81	-2.6
CCOc1cccc(C(=O)Nc2ccc(Cl)c(-c3nc4ncccc4o3)c2)c1
→ 0.85&0.85	-2.3&-2.4
Cc1sc2ncn(CC(=O)NCCC(C)C)c(=O)c2c1S(=O)(=O)N1CCC(C)CC1
→ 1.1	0.056
COc1ccc(Cc2nc(-c3ccc(NC(=O)c4ccncc4)cc3)no2)cc1
→ 1.1	1.2
Cc1ccc(-c2ccc(=O)n(CC(=O)NCCCN3CC(C)CC(C)C3)n2)cc1 (centres undefined)
→ 1	0.6
